Screens from PubChem BioAssay.
eIF4H inh = human eIF4H binding inhibitors, primary screen, translation initiation inhibitor project, biochemical, uHTS, fluorescence polarization | Eukaryotic translation initiation factor 4H (Homo sapiens), Q15056 | eIF4H fluorescence polarization binding assay | inhibition, % at 35 µM | 290,000 tested, 0.94% active | AID 2012, 2009;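 active = 50% or more with normal probe brightness, or confirmed in later tests; inconclusive = above 50% with abnormal brightness, or retests that disagree; inactive = below 50% or failed in later tests; about a fifth of its hits are not listed in these tables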;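 note: calls also rest on retests at 20 µM and on dose response follow-up; 0% = protein and probe with vehicle and 100% = probe without protein; strong numbers were not always called active; many hits fall short of the cut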
UUG fidelity = modulators of yeast start codon fidelity, primary screen, whole organism, S. cerevisiae, single point, plate reader | S. cerevisiae UUG-firefly luciferase reporter, luminescence/redox ratio | activity score, % at 18.7 µM | 350,000 tested, 0.13% active | AID 602363, 2012;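 active = replicate mean at a twofold rise or more, about +100% in these data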;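 note: firefly luciferase made from a UUG start codon reports start codon fidelity; reporter light over untreated wells divided by growth signal over untreated wells; some hits fall short of that in this replicate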
CSC inhib = cancer stem cell viability inhibitors, primary screen, luminescence; cancer stem cell-like cells viability; inhibition, % at 7.5 µM; 300,000 tested, 1.1% active;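 active = mean at 75% or more and at least half the replicates too; inconclusive = mean and replicates disagree; tested in HMLE shEcad cells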;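 note: 0% = median of negative and 100% = median of positive control wells; the first replicate is given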
MT1-MMP act inh = blockers of MT1-MMP proenzyme processing, primary screen, HT1080 RFP-PRO-GFP cells, GFP/RFP fluorescence; 360,000 tested, 0.061% active; GFP/RFP ratio change, % at 20 µM; GFP/RFP ratio fluorescence, overnight; percent of plate control window, DMSO zero;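 active = GFP/RFP ratio change of at least 30% with cell ATP level not reduced by more than half and red fluorescence within 50% of control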; note: strong numbers were not always called active
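Material – HT1080 RFP-PRO-GFP cells · Control set – DMSO wells and RFP-L50D-GFP cells · Incubation – overnight cell settling, then overnight compound exposure, 37 °C, 5% CO2 · Compound dosing – single-point 20 µM compound, 1% DMSO · Read-out – GFP/RFP fluorescence ratio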
Rce1 inh = yeast Rce1p protease inhibitors, primary screen, biochemical, fluorescence, cell-free homogeneous. CAAX prenyl protease 2 (Saccharomyces cerevisiae (strain ATCC 204508 / S288c)), Q03530. yeast membranes, quenched prenylated peptide cleavage fluorescence. calls only. 290,000 tested, 0.27% active. AID 2563, 2010;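 active = fall in fluorescence gain of 50% or more versus controls, with final raw signal at or below 3038400; inconclusive = same 50% fall but final raw signal above 3038400; inactive = fall in fluorescence gain under 50%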;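 note: plate controls were neutral control wells for no effect and wells lacking membranes for full effect; tested at 10 µM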
Target sequence (Q03530 whole entry, looked up): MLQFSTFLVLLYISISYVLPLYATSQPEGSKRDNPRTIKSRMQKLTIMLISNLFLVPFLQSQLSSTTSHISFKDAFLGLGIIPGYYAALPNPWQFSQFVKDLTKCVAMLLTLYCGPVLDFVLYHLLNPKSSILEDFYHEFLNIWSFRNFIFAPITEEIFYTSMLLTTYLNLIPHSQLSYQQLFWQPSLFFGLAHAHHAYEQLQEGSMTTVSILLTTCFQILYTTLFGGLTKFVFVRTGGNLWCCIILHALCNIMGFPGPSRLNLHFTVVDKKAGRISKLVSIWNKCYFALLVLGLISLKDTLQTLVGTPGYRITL
Env fusion inh = inhibitors of HIV-1 Env-driven cell-cell fusion, primary screen, HeLa-JRFL effector, CEM21 target cells, luciferase; inhibition, % at 12.3 µM; 360,000 tested, 1.1% active; AID 651610, 2012;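 active = mean replicate inhibition score of at least 50 and every replicate individually at or above 50; inconclusive = only one of the two criteria met; inactive = mean below 50 and not all replicates reaching 50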;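 note: 0% = plate neutral controls and 100% = maraviroc near 300 nM; one replicate is shown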
PABP polyA inh = PABP poly(A) RNA binding inhibitors, primary screen, biochemical, fluorescence polarization, uHTS; 290,000 tested, 1% active; inhibition, % at 35 µM; AID 2014, 2009; Polyadenylate-binding protein 1 (Homo sapiens), P11940;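 active = 50% or more with normal probe brightness, or confirmed in later tests; inconclusive = above 50% with abnormal brightness, or retests that disagree; inactive = below 50% or failed in later tests; about a fifth of its hits are not listed in these tables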;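 note: calls also rest on retests at 20 µM and on dose response follow-up; controls were probe without protein and protein plus probe with vehicle; some compounds called inactive have numbers as strong as hits; many hits fall short of the cut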
Target sequence (P11940 whole entry, looked up): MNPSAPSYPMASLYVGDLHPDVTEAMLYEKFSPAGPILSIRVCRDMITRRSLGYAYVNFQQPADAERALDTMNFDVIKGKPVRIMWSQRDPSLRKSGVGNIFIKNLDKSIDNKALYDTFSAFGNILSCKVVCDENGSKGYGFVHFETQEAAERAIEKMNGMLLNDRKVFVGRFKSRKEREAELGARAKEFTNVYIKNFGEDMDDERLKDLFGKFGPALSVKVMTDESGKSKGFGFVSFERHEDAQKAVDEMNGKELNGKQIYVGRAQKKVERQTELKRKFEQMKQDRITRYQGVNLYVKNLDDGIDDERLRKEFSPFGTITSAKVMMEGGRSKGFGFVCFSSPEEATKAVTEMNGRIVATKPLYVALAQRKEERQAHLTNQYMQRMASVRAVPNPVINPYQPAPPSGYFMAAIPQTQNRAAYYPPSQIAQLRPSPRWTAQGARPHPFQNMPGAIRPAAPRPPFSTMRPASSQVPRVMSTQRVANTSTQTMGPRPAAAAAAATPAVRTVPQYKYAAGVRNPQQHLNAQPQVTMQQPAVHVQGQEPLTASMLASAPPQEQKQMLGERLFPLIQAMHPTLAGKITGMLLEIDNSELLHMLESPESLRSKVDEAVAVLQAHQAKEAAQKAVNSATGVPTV
eIF4H inh retest = further read-out of eIF4H inh, marked with its call; inhibition, %; compound at 20 µM; confirmation average;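 mean of two retest wells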
PABP polyA inh retest = second read-out of PABP polyA inh, no call of its own (marks repeat the call); inhibition, %; compound at 20 µM; confirmation repeats;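 mean of two retest wells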
MT1-MMP act inh RFP = second read-out of MT1-MMP act inh, no call of its own (marks repeat the call); RFP signal change, %; measured here: RFP expression control read;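 0 = vehicle wells; hits needed this value within 50% of zero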
The depositor's hits bear a star; i = inactive; ? = inconclusive; . = no result given; & = joins results of further samples; [ ] = dose if it differs, or a comment.

SMILES	eIF4H inh	UUG fidelity	CSC inhib	MT1-MMP act inh	MT1-MMP act inh RFP	Rce1 inh	Env fusion inh	PABP polyA inh	others
CSCC[C@H](N)C(=O)NC[C@H]1CC[C@H](C(=O)N[C@@H](Cc2ccccc2)C(=O)O)CC1	-22	-8	.	-1	2	i	6	7
COc1ccccc1C1NC(=O)NC(C)=C1C(=O)OCc1ccccc1 (stereo unspecified)	-10	-5	-3	4	-8	i	17	-6
COc1ccc2cc(C(=O)N3CCCC(Nc4ccc(F)cc4)C3)n(C)c2c1 (stereo unspecified)	-1	17	1	-1	0	i	24	-1
COC1CCCN(Cc2cn(C)nc2-c2ccc(Oc3ccccc3)cc2)C1 (stereo unspecified)	-3	.	-6	-9	-2	i	6	-4
Cc1cc(C)nc(Nc2ccc(Cl)cc2C)n1	3	-9	12	1	2	i	-9	5
C=CCN(CC=C)Cc1cc(=O)oc2ccccc12	.	-12	.	2	3	.	-21	.
CCN(CC)c1ccc(NC(=O)CCS(=O)(=O)c2ccc(Br)cc2)c(C)c1	93*	-18	37	3	1	i	1	42*	eIF4H inh retest=102*;PABP polyA inh retest=65*
Cc1ccc(S(=O)(=O)NCCN2CCN(S(=O)(=O)c3ccccc3Cl)CC2)cc1	.	-27	7	-2	-2	.	.	.
C=CCn1c2ccccc2c2nnc(SCC(=O)NC(C(=O)OC)C(C)C)nc21 (stereo unspecified)	5	14	-19	-4	-2	i	5	-4
CC12CCC(O)CC1=CCC1C2CCC2(C)C(c3ccn[nH]3)CCC12 (stereo unspecified)	.	-10	.	-2	-22	.	2	.
O=C1NC(Nc2nc3ccccc3s2)(C(F)(F)F)C(=O)N1C1CCCCC1 (stereo unspecified)	-1	-18	16	-12	1	i	.	-7
O=C(COc1ccccc1)N=C1SC2CS(=O)(=O)CC2N1c1ccccc1F (stereo unspecified)	-4	-12	-2	-1	1	i	5	-2
Cc1ccc(CNC(=O)c2ccc(Cn3nc(C)c(Cl)c3C)o2)cc1	4	-5	-3	-4	0	i	.	5
Cc1cc(-c2ccccc2)nc(N/N=C/c2ccccc2)n1	-6	-35	16	-6	-5	i	-51	-4
O=NN(Cc1cccnc1)Cc1cccnc1	.	-6	.	6	2	.	-1	.
C[C@H]1C=C(C(=O)N2CCN(Cc3ccc4c(c3)OCO4)CC2)O[C@@H](OCc2ccc(CO)cc2)C1	3	3&-5	-11	6	-4	i	2[16.7 µM]	-1
O=C1NC(=O)C(=CC=Cc2ccccc2)S1	.	-20	.	-1	-7	.	-4	.
CC1CCc2c(sc3ncnc(SCC(=O)Nc4ccc(C(=O)O)cc4)c23)C1 (stereo unspecified)	3	-13	.	3	4	i	19	25
COc1ccccc1N1CCN(C(=O)CCC(=O)Nc2nnc(C(C)C)s2)CC1	-12	-7	-8	6	2	i	0	10
C[C@H]1CN=C(N(C)C)N1CCC1CCCCC1	.	-3	-4	2	2	.	-18	.
N#Cc1cccc(CN2CCC(=O)N([C@H](CO)Cc3ccccc3)CC2)c1	-1	-18	-8	0	3	i	-13	-14
Cc1ccc(NC(=O)CC2SC(=NC3CCCCC3)NC2=O)cc1 (stereo unspecified)	-4	.	9	4	3	i	10	-1
CN(C)/C=C1\N=C(c2ccc3c(c2)OCO3)OC1=O	3	-20	-11	-5	-3	i	.	-10
O=c1[nH][nH]c(C(F)(F)F)c1C=Nc1ccc(Cl)cc1	-9	-7	49	4	2	.	-115	4
O=C1c2ccccc2C(=O)N1CCc1nc(-c2ccccn2)no1	-1	.	-4	0	6	i	-83	-2
COc1ccc(C(=O)C2CCCN(C(=O)c3ccnn3C)C2)c(C)c1 (stereo unspecified)	-4	-8	-19	-5	-1	i	1	9
O=C(O)CCCCCN=C1CCc2ccccc2N1	0	1	.	6	3	i	-9	-4
COc1ccc2c(c1)C1NC(=S)N[C@@](C)(O2)C1C(=O)Nc1ccccc1 (stereo partly specified)	2	.	-11	4	6	i	.	-1
Cc1ccc2[nH]c(=O)c(CN(C)C(=O)c3cccs3)cc2c1	-5	-9	-24	2	1	i	10	-1
CC(=O)Oc1ccc2occ(C(=O)c3ccccc3)c2c1	.	-10	-1	0	-4	i	-15	.

Overlap with the part before: two entries, followed by the next part.
SMILES	eIF4H inh	UUG fidelity	CSC inhib	MT1-MMP act inh	MT1-MMP act inh RFP	Rce1 inh	Env fusion inh	PABP polyA inh	others
Cc1ccc2[nH]c(=O)c(CN(C)C(=O)c3cccs3)cc2c1	-5	-9	-24	2	1	i	10	-1
CC(=O)Oc1ccc2occ(C(=O)c3ccccc3)c2c1	.	-10	-1	0	-4	i	-15	.
O=C(NC(=S)Nc1ccccc1)c1ccc(Br)o1	2	-5	-12	1	4	i	-22	-8
CCOC(=O)N1CCN(C(=O)COC(=O)c2cc(Cl)c(O)c(Cl)c2)CC1	8	.	-17	1	3	i	1	-3
Cc1csc(NC(=O)c2cc(C)nc3ccccc23)n1	5	.	-9	4	5	i	3	41
COc1ccc(NC(=O)c2ccco2)cc1NC(=O)c1cccs1	2	-24	-3	5	2	i	-52	-9
CCn1cc(C(=O)OCC(=O)N(C)Cc2ccccc2)c(=O)c2ccc(C)nc21	-1	.	6	0	1	i	14	-4
Cc1cccc(NC(=O)c2ccc(-n3cccn3)c([N+](=O)[O-])c2)c1	2	-33	-3	3	2	i	.	-6
CC(=O)Nc1ccc(S(=O)(=O)N2CCN(C(=O)N3CCOCC3)CC2)cc1	2	-5	.	-1	-2	i	.	-9
CCN(CC)CCNS(=O)(=O)c1ccc(Cl)cc1	-2	-12	-11	9	9	i	-61	-4
CC(C)CNC(=S)NC(=O)c1ccc([N+](=O)[O-])cc1	0	-24	3	3	-7	i	.	-13
Nc1nc(SCc2ccccc2)c2ncn(C3OC(CO)C(O)C3O)c2n1 (stereo unspecified)	.	-3	.	4	5	.	-3	.
Cc1coc2c(C)c3oc(=O)c(CCC(=O)NCCC(=O)O)c(C)c3cc12	29	-16	-5	6	-1	i	16	13
COc1ccc(Nc2nc3c(C)cccc3cc2C#N)cc1	33	.	16	5	1	i	1	11
CC(NC(=O)c1ccc(C(C)(C)C)cc1)C(=O)O (stereo unspecified)	-5	-13	-8	-1	4	i	-38	6
COc1ccc(NC(=O)c2sc(SCc3ccccc3)nc2N)cc1	5	-20	0	-1	1	i	-41	1
CC1(NC(=O)Cn2cc(C(F)(F)F)ccc2=O)CCS(=O)(=O)C1 (stereo unspecified)	.	-16	-16	9	4	.	.	.
CCOC(=O)CC(=O)Nc1ncnc2c1C(c1ccccc1)c1c(ccc3ccccc13)O2 (stereo unspecified)	.	-14	.	-6	-1	.	-6	.
Cc1cccc2sc(N(CCN(C)C)C(=O)C3CCN(S(=O)(=O)c4cccs4)CC3)nc12	.	10	.	0	-3	i	0	.
Cc1cc(Cl)cc(Cl)c1OCCN1CCCC1	14	-8	-1	-2	1	i	12	21
C=CC[n+]1c(-c2ccccc2)csc1NC(C)(C)C	-5	.	-2	-2	4	i	-136	4
CCOc1ccc(C2N(c3cc(C)on3)C(=O)C3CCCN32)cc1OC (stereo unspecified)	-1	-8	.	-2	0	i	-7	7
CC1(C)Cc2c(cnn2-c2ccc(F)cc2)C(NC(=O)CCN2CCCC2=O)C1 (stereo unspecified)	86	5	7	4	1	i	-18	10	eIF4H inh retest=-4;PABP polyA inh retest=-9
CCNC(=O)N1C(=O)C2(OCCO2)c2ccccc21	-6	-11	-4	6	7	i	.	-1
CS(=O)(=O)Nc1cccc(C2=NN(C(=O)c3ccccc3)C(c3cccs3)C2)c1 (stereo unspecified)	5	-4	2	-1	-2	i	16	1
NC(=O)c1ccsc1NC(=O)COC(=O)/C=C/c1ccc([N+](=O)[O-])cc1	26	.	-9	-1	-1	i	-4	14
O=C(CSc1nc(=O)n2ccccc2n1)N1N=C(c2cccs2)CC1c1ccc(F)cc1 (stereo unspecified)	.	-7	-2	-11	-2	i	13	.
CC(=O)c1ccccc1OC(=O)CCN1C(=O)C2C3C=CC(C4CC34)C2C1=O (stereo unspecified)	-1	.	-11	4	7	i	7	-5
N#C/C(=C/c1ccc(O)c(O)c1)C(=O)NCc1ccc(Cl)cc1	3	-16	?	-7	-7	i	-43	7
CC(=O)Nc1nc(C)c(Oc2cccc(C(F)(F)F)c2)c(=O)[nH]1	9	.	10	0	6	i	10	-2
COc1ccccc1CNCc1cc(OC)c(OC)cc1OC	-5	-10	-7	0	2	i	.	-7
CCCC[C@@H]1CN=C(N)N1CCc1cccc(F)c1	.	-12	4	-1	2	i	-7	.
N=c1c2c3c(sc2ncn1N)CCCCC3	-14	-14	7	3	7	i	-69	-5
COc1cccc(Nc2nnc(SCN3C(=O)c4ccccc4C3=O)s2)c1	7	-12	-7	4	4	i	.	12
C=CCn1c(SCC(=O)c2ccc(O)c(O)c2)nnc1-c1cccc(C)c1	.	-14	13	8	-5	.	3	.
COc1ccc(NS(=O)(=O)c2cccc(C(=O)NN=Cc3cc(Br)c(O)c(Br)c3)c2)cc1	.	-11	-7	8	-5	.	-31	.
O=C(O)[C@@H]1CCCN1C(=O)c1ccco1	-3	-15	-18	1	10	i	6	-17
COc1ccc(N(CC(=O)Nc2cccc([N+](=O)[O-])c2C)S(C)(=O)=O)cc1OC	2	.	3	3	4	i	7	9
CCOC(=O)c1c(NC(=O)/C=C\C(=O)O)sc(C)c1-c1ccccc1	11	.	0	-4	-6	i	-24	12
Cc1cc(S(=O)(=O)Nc2c(C)nc3nc[nH]n3c2=O)ccc1F	-5	.	-5	3	-3	i	0	-9
CC1=C([N+](=O)[O-])C(c2ccccc2)NC(=O)N1 (stereo unspecified)	0	1	-13	-1	0	i	-9	8
CCCC(C)C(=O)Nc1ccc(S(N)(=O)=O)cc1 (stereo unspecified)	-9	.	-8	-1	3	i	0	2
O=C(NC1CCCC1)C(c1ccncc1)N(C(=O)c1csnn1)c1cccc(Cl)c1 (stereo unspecified)	-10	-24	-4	0	5	.	13	15
CC1=[N+]([O-])C(C)(C)C(c2ccc(Br)cc2)=[N+]1[O-]	2	.	-10	1	9	i	-9	5
NC1=NC(=O)/C(=C/c2cn(CCC(=O)O)nc2-c2ccc(F)cc2)S1	-7	-8	-2	1	5	i	-5	-6
CCS(=O)(=O)N1Cc2ccccc2CC1C(=O)Nc1nc2ccc(F)cc2s1 (stereo unspecified)	-2	-3	-2	7	-4	i	.	-9
CC(=O)Nc1cccc(-c2csc(Nc3ccc(C)cn3)n2)c1	-2	-35	29	6	3	i	-299	-2
CCCCc1nc(N)c(C#N)c(-c2ccco2)c1CCC	-11	-33	3	-3	-4	i	.	11
CC(=O)NC(c1cccc(F)c1)c1nc(-c2ccccc2)cs1 (stereo unspecified)	.	-10	.	3	2	.	7	.
CC(C)Cc1csc(NC(=O)c2ccccc2Cl)c1C(=O)O	1	.	24	4	6	i	11	-4

An excerpt; rates above refer to the full screens.
